Source: PubChem
PrP 5UTR inh = inhibition of PrP 5' UTR reporter expression; inhibition, % (no concentration beside the values); AID 488862; cell-based PrP 5' UTR mRNA reporter, plate reader; actives 0.35% (n = 340,000);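 active = every replicate at 50% or more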;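 also: 0 = median of the neutral control wells; tested in H4 reporter cells; numbers are from one replicate; inactives centre near -14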
Mtb hypoxia rep = reduces hypoxia-regulated biosensor signal in M. tuberculosis; M. tuberculosis hypoxia-regulated fluorescent reporter, fluorescence; fluorescence inhibition, % (concentration not given with the values); actives 0.1% (n = 300,000); AID 1159583;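 active = 35 to 45% if threefold the growth effect, above 45% if 1.5-fold the growth effect; inactive = the rest, general growth blockers included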;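 also: wells of about 50 µL received 100 nL stock; 0% = vehicle wells and 100% = reference inhibitor wells; whole bacteria with a GFP reporter of the hypoxia response; strong numbers were not always called active; many hits fall short of the cut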
Bead autofluor = compound fluorescence in toxin protease inhibitor counterscreen | actives 3.1% (n = 360,000) | fluorescence intensity (no concentration beside the values) | compound autofluorescence counterscreen, microsphere flow cytometry; hits give high values;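 active = at least 3 SD above the mean of all compounds, about 16000 in these data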;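 also: 100 nL of 1 mM stock went into each well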
Sa RN4220 lethal = S. aureus RN4220 growth inhibition. inhibition, % (test concentration not listed). actives 0.33% (n = 330,000). AID 1259311. OD600, 16 h;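 active = z-score of -3 or lower and OD600 up to 0.18 on both plates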;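 also: plate controls were untreated cells for no effect and reference antibiotic for full effect; stock transfer was 100 nL into about 80 µL; one replicate is shown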
BJeLR lethal = kills HRASV12-expressing BJeLR cells; AID 1554; BJeLR (HRASV12) viability, CellTiter-Glo ATP luminescence, 48 h; reference of the scale not given here; inhibition, % (test concentration not listed); actives 0.17% (n = 300,000);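 active = replicate mean above 50%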;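 also: 50 nL library stock added to about 25 µL; numbers are from one replicate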
Sa ugtP lethal = kills S. aureus RN4220 lacking UgtP; S. aureus RN4220 ugtP deletion, OD600 growth, 16 h; some inactives read as strong as hits; growth inhibition, % (test concentration not listed); actives 0.54% (n = 330,000); AID 1259309;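 active = z-score under -3 and OD600 up to 0.15 on both plates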;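 also: plate controls were untreated wells for no effect and antibiotic for full effect; wells of about 80 µL received 100 nL stock; the first replicate is given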
Mtb hypoxia rep growth = further read-out of Mtb hypoxia rep, marked with its call; growth inhibition, %; measured here: M. tuberculosis growth (absorbance);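 0% = vehicle and 100% = reference antibiotic; read after six days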
An asterisk follows results filed as active; . = not tested or not shown. Compounds as they come. About 4% of those tested had a hit in this group.

item	Compound	Sa ugtP lethal	Sa RN4220 lethal	Bead autofluor	PrP 5UTR inh
1	FC(F)Oc1ccc(NC(=S)NCc2ccccc2)cc1	7	2.7	2034	-17
2	CC(=O)NC1=NN(C(C)=O)C2(S1)C(=O)N(C(C)=O)c1ccc(C)cc12 (centres undefined)	10	1.5	3958	-15
3	O=C(CSc1nnc(Cc2cc(=O)[nH]c(=O)[nH]2)n1-c1ccc(F)cc1)NC1CCCC1	2	0.8	5832	-5
4	Cc1ccc(C(=O)Nc2nnc(SCC(=O)N3CCCc4ccccc43)s2)cc1	-6	5.7	2008	4
5	O=C(NCC(c1cccs1)N1CCOCC1)c1ccc(Cl)c(S(=O)(=O)N2CCOCC2)c1 (centres undefined)	4	2.8	3863	-19
6	COc1ccc(/C=N/NC(=O)C(C)n2cnc3ccccc3c2=O)cc1OC (centres undefined)	.	.	10942	-3
7	Cc1ccc(CCNC(=O)CN2C(=O)COc3ccc(S(=O)(=O)N4CCCCC4)cc32)cc1	2	-0.6	5369	-24
8	Nc1ccc(CCN2CCCC2)cc1	3	1.2	3681	-14
9	c1cncc(C2CC(c3cccs3)n3ncnc3N2)c1 (centres undefined)	-1	6.4	2577	-25
10	O=S(=O)(Cc1ccc(Cl)cc1)NCC1CCCO1 (centres undefined)	13	4.2	6873	-4
11	CCC(C)NC(=O)CSc1nc2ccccc2c(=O)n1CCCN1CCCCC1 (centres undefined)	6	4.1	3157	-12
12	Cc1ccc(C)c(N2CCN(S(=O)(=O)c3ccc4c(c3)NC(=O)CS4)CC2)c1	-22	-7.0	4816	-6
13	Cc1ccc(C)c(NC(=S)NC(NC(=O)/C=C/c2ccccc2)C(Cl)(Cl)Cl)c1 (centres undefined)	-28	-6.1	3731	-2
14	CN1CCOCCOCCN(C)C(=O)N2CCOCCOCCN(CCOCC2)C1=O	13	2.9	9302	-9
15	Cc1cc2c(s1)c1cnn(Cc3ccccc3F)c(=O)c1n2C	8	5.9	4807	-14

item	BJeLR lethal	Mtb hypoxia rep growth	Mtb hypoxia rep
1	-1	0	13
2	0	11	2
3	0	.	.
4	-6	5	16
5	0	3	-1
6	-13	.	.
7	6	-1	2
8	8	9	7
9	1	3	1
10	-13	3	6
11	-2	-5	-8
12	10	17	-1
13	-7	7	9
14	-8	-8	4
15	6	.	.

Three structures from above, sorted by length of the SMILES, rising:
item	Compound	Sa ugtP lethal	Sa RN4220 lethal	Bead autofluor	PrP 5UTR inh
9	c1cncc(C2CC(c3cccs3)n3ncnc3N2)c1 (centres undefined)	-1	6.4	2577	-25
11	CCC(C)NC(=O)CSc1nc2ccccc2c(=O)n1CCCN1CCCCC1 (centres undefined)	6	4.1	3157	-12
12	Cc1ccc(C)c(N2CCN(S(=O)(=O)c3ccc4c(c3)NC(=O)CS4)CC2)c1	-22	-7.0	4816	-6

item	BJeLR lethal	Mtb hypoxia rep growth	Mtb hypoxia rep
9	1	3	1
11	-2	-5	-8
12	10	17	-1

Continued.
item	Compound	Sa ugtP lethal	Sa RN4220 lethal	Bead autofluor	PrP 5UTR inh
16	COc1cc(C=NNC(=S)NC2CC3C=CC2C3)cc(OC)c1OC (centres undefined)	20	-1.3	.	.
17	NC(=O)c1ccc(Oc2cccc3cccnc23)c([N+](=O)[O-])c1	4	-5.8	4303	-8
18	COc1ccc(NS(=O)(=O)c2ccc(N3C(=O)CCC3=O)cc2)cc1	0	-2.4	24859*	-15
19	Cc1cc(NC(=O)CSc2nc(C(C)C)nc3ccccc23)no1	4	5.7	4443	-19
20	Cc1ccc(C)c(NC(=O)C2CCCN2/C=C/C(=O)C(F)(F)F)c1 (centres undefined)	2	0.0	2428	-25
21	O=C(Nc1ccccc1)C1CCCN(C(=O)c2ccc(F)cc2)C1 (centres undefined)	-2	-1.8	6341	-23
22	C=CCNC(=S)N1CCC(Cc2ccccc2)CC1	7	-0.9	6417	-7
23	Cc1ccc(C)c(Oc2coc3cc(OC(=O)c4cccs4)ccc3c2=O)c1	22	6.8	3081	-10
24	COc1ccccc1NC(=O)Nc1nc(CC(=O)Nc2ccc(F)c(F)c2)cs1	-7	-2.8	5506	-78
25	CCCOc1cccc(OCC(=O)Nc2nc3ccccc3[nH]2)c1	-6	2.8	2128	-11
26	Cn1cc(C(=O)NN=CC2=C(N3CCOCC3)/C(=C/c3ccc([N+](=O)[O-])cc3)CC2)ccc1=O	1	2.3	.	.
27	CN(CC(=O)Nc1cccc(F)c1)C(=O)c1cn(-c2ccccc2)nc1-c1cccs1	-6	-5.0	5807	-19
28	c1ccc(-n2cnnc2SCc2cn3ccccc3n2)cc1	1	8.4	8911	-8
29	CN1CCN(C(=O)C(C(=O)c2ccc(F)cc2)n2ccccc2=O)CC1 (centres undefined)	-2	1.6	4662	-16
30	CC(C)(C)C(=O)Nc1ccc(N2CCCC2)cc1	-6	5.9	1828	-15

item	BJeLR lethal	Mtb hypoxia rep growth	Mtb hypoxia rep
16	.	15	11
17	8	5	16
18	-9	-12	-7
19	-4	2	10
20	-17	-4	7
21	.	5	8
22	-2	16	14
23	0	.	.
24	-3	2	1
25	-10	6	1
26	.	-4	3
27	2	0	8
28	-6	6	7
29	-3	2	3
30	7	9	1

The listing continues:
item	Compound	Sa ugtP lethal	Sa RN4220 lethal	Bead autofluor	PrP 5UTR inh
31	CCCC(=O)N(c1ccc2oc(C)c(C(C)=O)c2c1)S(=O)(=O)c1ccc(C(=O)O)cc1	4	2.4	3712	-10
32	O=C1[C@H](Oc2ccccc2)[C@@H](c2ccccc2)N1c1ccncc1	-8	7.5	3441	-28
33	O=C(CNC(=O)c1ccccc1Cl)N/N=C/c1ccc([N+](=O)[O-])s1	.	.	2752	-23
34	O=C1Nc2ccccc2SC1c1ccccc1 (centres undefined)	1	5.7	3634	-25
35	O=c1[nH]c(O)c(N=Nc2ccc3c(c2)OCCO3)c(=O)[nH]1	-1	3.3	2491	43
36	Cc1ccc2[nH]c(=O)c(CN(Cc3ccco3)C(=O)CN3CCCC(C)C3)cc2c1 (centres undefined)	4	1.3	4424	-8
37	O=C(O)c1ccc(-n2nc(C(F)(F)F)c3c2-c2ccoc2CC3)cc1	4	6.0	21579*	-37
38	CCN1C(=O)[C@@H]2[C@H](C1=O)[C@@H]1C(=O)Nc3ccccc3C(=O)N1[C@@H]2c1ccc(OC)cc1	.	.	4105	-2
39	CC(C)C[C@H](NC(=O)NCCc1ccc(Cl)cc1)C(=O)O	7	-8.4	3407	-14
40	COc1cccc(SCc2noc(C(=O)NCc3ccccc3)c2C(=O)NCc2ccccc2)c1	-4	0.9	2909	9
41	CC(C)=C1C2CCC1C1C(=O)N(c3ccc(C)c(C)c3)C(=O)C21 (centres undefined)	0	6.0	2599	-16
42	CCN(CC)S(=O)(=O)c1ccc(N/N=C/c2ccccc2OCC(=O)O)c([N+](=O)[O-])c1	.	.	3276	-12
43	O=C(CN(C(=O)c1ccccc1Cl)N1C(=O)CCCC1=O)c1ccc(Cl)cc1	6	4.1	5899	-12
44	CC(C)CNC(=O)NC(=O)COc1c(F)c(F)cc(F)c1F	-1	3.3	4624	-10
45	CC(=NNC(=O)C(O)(c1ccccc1)c1ccccc1)c1ccc([N+](=O)[O-])o1	33	44	.	.

item	BJeLR lethal	Mtb hypoxia rep growth	Mtb hypoxia rep
31	-2	-1	-5
32	.	10	6
33	-10	.	.
34	5	-4	7
35	7	-6	-3
36	3	5	9
37	3	0	3
38	2	.	.
39	-2	0	-2
40	4	-3	-4
41	-13	6	2
42	-11	.	.
43	-4	9	-1
44	-3	.	.
45	.	42	24

Record cards (already shown). Order of screens: Sa ugtP lethal, Sa RN4220 lethal, Bead autofluor, PrP 5UTR inh, BJeLR lethal, Mtb hypoxia rep growth, Mtb hypoxia rep
Entry for O=C1Nc2ccccc2SC1c1ccccc1 (centres undefined) : 1, 5.7, 3634, -25, 5, -4, 7
Entry for CC(=NNC(=O)C(O)(c1ccccc1)c1ccccc1)c1ccc([N+](=O)[O-])o1 : 33, 44, ., ., ., 42, 24
Entry for CCCC(=O)N(c1ccc2oc(C)c(C(C)=O)c2c1)S(=O)(=O)c1ccc(C(=O)O)cc1 : 4, 2.4, 3712, -10, -2, -1, -5
Entry for CC(C)=C1C2CCC1C1C(=O)N(c3ccc(C)c(C)c3)C(=O)C21 (centres undefined) : 0, 6.0, 2599, -16, -13, 6, 2
Entry for CC(C)C[C@H](NC(=O)NCCc1ccc(Cl)cc1)C(=O)O : 7, -8.4, 3407, -14, -2, 0, -2

Next records:
item	Compound	Sa ugtP lethal	Sa RN4220 lethal	Bead autofluor	PrP 5UTR inh
46	COC(=O)C1C(c2ccc(OC)cc2)NC(=O)NC1(O)C(F)(F)Cl (centres undefined)	7	2.9	6290	-12
47	CC(=O)c1c(C)[nH]c(C(=O)OCc2ccccc2F)c1C	8	4.8	4542	-111
48	C(=N\N1CCN(c2ccccn2)CC1)/C1=C(N2CCOCC2)C(=C/c2ccccc2)/CC1	.	.	4135	-1
49	CCCC(c1nnnn1C(C)(C)CC)N1CCN(C2CCCC2)CC1 (centres undefined)	-5	-2.6	3617	-18
50	CCOC(=O)C1=C(c2ccccc2)Nc2nc(C)nn2C1c1cccc(OC)c1OC (centres undefined)	-1	1.7	8763	-16
51	Cc1cc(C)c(NC(=S)N(C)C)c(C)c1	3	2.0	5406	-14
52	COc1ccccc1N(CC(=O)NCCSCc1ccccc1Cl)S(C)(=O)=O	6	3.5	3863	-8
53	COc1cccc(C(=O)N2CCOCC2)c1OC	0	-0.6	4701	-18
54	CCNc1ccc(P(=O)(c2ccccc2)c2ccccc2)cc1	0	5.5	4020	-12
55	COc1ccccc1CN1C(=NC(=O)C2CCCCC2)SC2CS(=O)(=O)CC21 (centres undefined)	-10	0.2	6286	-17
56	Cc1c(C)n2c(SCC(=O)N3CCOCC3)nnc2[nH]c1=O	-1	-0.4	5871	-3
57	C=CCN1CC(O)=C(c2nc3ccccc3[nH]2)C1=N	8	0.2	2417	-26
58	Clc1ccc(CSc2ncnc3c2ncn3C2CCCCO2)cc1 (centres undefined)	16	-1.4	4258	-19
59	Cc1ccc(SCc2nc(-c3ccncc3)no2)cc1	11	10	2810	-16
60	COc1ccc(OC)c(CCNC(=O)c2cccc(NC3=NC4CS(=O)(=O)CC4S3)c2)c1 (centres undefined)	5	7.6	4828	-12

item	BJeLR lethal	Mtb hypoxia rep growth	Mtb hypoxia rep
46	1	6	14
47	0	-1	-10
48	-1	.	.
49	.	.	.
50	2	1	-3
51	-1	-9	-5
52	-19	10	0
53	-11	2	2
54	-1	0	-10
55	8	5	0
56	-6	10	-3
57	2	2	-3
58	.	17	11
59	18	.	.
60	-1	-5	-2

Going on with the list.
item	Compound	Sa ugtP lethal	Sa RN4220 lethal	Bead autofluor	PrP 5UTR inh
61	Cc1nc(C)n(CCNC(=O)c2ccco2)n1	10	3.8	.	-4
62	Cc1ccc(S(=O)(=O)N2c3ccc(S(N)(=O)=O)cc3CC2C)cc1 (centres undefined)	11	4.5	2459	-11
63	CC(=O)N1CCN(C(=O)CCc2nc3ccccc3c(=O)[nH]2)CC1	-1	0.8	11374	1
64	NC(=NN=Cc1ccc(O)cc1)N[N+](=O)[O-]	-7	0.5	.	.
65	CC1CN(C(=O)CCC(=O)NCc2ccc(Cl)cc2)c2ccccc2O1 (centres undefined)	2	-6.8	4418	-10
66	CN(CC(=O)N(C)CC(=O)Nc1c(Cl)cccc1Cl)Cc1ccc(Br)s1	2	5.8	4980	-1
67	O=C(CCCN1C(=O)/C(=C/c2ccccc2Cl)SC1=S)NNC(=O)c1ccc(Cl)cc1	-15	-1.4	6071	28
68	COC(=O)c1ccc2c(c1)NC(=O)C1CCCN21 (centres undefined)	12	3.2	5808	.
69	C=CCn1c(C)nc2c(sc3nc4c(cc32)COC(C)(C)C4)c1=O	5	4.4	6351	-109
70	Cc1cc(C)n2nc(Cc3ccccc3)nc2n1	-1	3.8	2913	-10
71	CCCOc1ccc(C=NNc2ccc(C(=O)O)cc2)c(OCCC)c1	14	1.5	.	.
72	CC(Sc1ccc(Cl)cc1)C(=O)NNC(=O)c1ccco1 (centres undefined)	-2	3.2	3681	-8

item	BJeLR lethal	Mtb hypoxia rep growth	Mtb hypoxia rep
61	5	2	2
62	-3	1	-8
63	-5	9	7
64	.	7	3
65	6	6	9
66	.	-8	9
67	5	19	-5
68	-11	.	.
69	-3	10	4
70	-1	.	.
71	.	16	5
72	.	12	20
